CHT block – inhibits the human high affinity choline transporter; B-score at 10 µM; Q9GZV3; CHT-expressing cells, membrane potential dye, choline response; stronger effect = lower value; 0.86% of 310,000 active;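 active = B-score over 3 SD under the library average, and starting fluorescence ratio not unusually high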;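 note: choline stimulus applied at its EC90 after an EC20 pre-addition; B-score computed on integrated fluorescence ratio after choline addition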
Target sequence (Q9GZV3 whole entry, looked up): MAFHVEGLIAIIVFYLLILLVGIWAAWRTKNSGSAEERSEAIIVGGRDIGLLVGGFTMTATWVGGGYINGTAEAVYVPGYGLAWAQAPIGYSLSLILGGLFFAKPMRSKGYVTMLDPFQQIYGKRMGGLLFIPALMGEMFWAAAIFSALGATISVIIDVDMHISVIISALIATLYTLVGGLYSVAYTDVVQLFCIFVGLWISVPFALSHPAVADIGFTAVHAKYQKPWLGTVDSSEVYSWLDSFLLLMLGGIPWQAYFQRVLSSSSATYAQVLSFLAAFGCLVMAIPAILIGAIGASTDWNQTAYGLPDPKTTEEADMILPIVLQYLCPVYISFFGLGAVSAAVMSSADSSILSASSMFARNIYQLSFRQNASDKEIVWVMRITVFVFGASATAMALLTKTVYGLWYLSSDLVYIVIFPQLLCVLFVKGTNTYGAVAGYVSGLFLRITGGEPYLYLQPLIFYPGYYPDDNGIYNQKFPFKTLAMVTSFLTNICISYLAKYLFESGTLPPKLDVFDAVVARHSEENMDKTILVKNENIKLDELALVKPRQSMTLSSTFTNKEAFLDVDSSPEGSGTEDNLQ
Calls only. Some of the compounds tested, and most or all hits are left out here.

What do the screens show for `O=C1C2C(C(=O)N1/N=C/c1ccc(N3CCCCC3)o1)C1C=CC2C12CC2` (stereo not given)?
CHT block: inactive

Results for CCOc1ccccc1-n1cnc2cc(C(=O)NCc3ccco3)ccc21 ?
CHT block: inactive

How did CCOc1ccc(N(C(=O)c2snc(C(N)=O)c2N)C(C(=O)NCC2CCCO2)c2c[nH]c3ccccc23)cc1 (stereo not given) do in these assays?
CHT block: inactive

How did Cc1nnc(SCc2ccccn2)n(N)c1=O do in these assays?
CHT block: inactive

What do the screens show for `O=C(Nc1ccccc1)C1CCCN(C(=O)c2ccc(Cl)cc2)C1` (stereo not given)?
CHT block: inactive

What do the screens show for `COc1ccc(-c2ocnc2C(=O)N2CCN(Cc3cccnc3)CC2)cc1`?
CHT block: inactive

What do the screens show for `CCC(Oc1ccccc1F)C(=O)NCCN1CCOCC1` (stereo not given)?
CHT block: inactive

What do the screens show for `CCOC(=O)C1(CCOC)CCN(Cc2ccccc2-c2ccco2)CC1`?
CHT block: inactive

How did COc1cc(C#N)ccc1OCC(=O)c1ccc2c(c1)OCCO2 do in these assays?
CHT block: inactive

How did Cc1cc(Cl)ccc1NC(=S)NCc1ccccc1 do in these assays?
CHT block: inactive

Results for Cc1cccc(C(=O)NNC(=O)Nc2ccccc2)c1 ?
CHT block: inactive

How did CCCCOc1ccc(C(=O)NCC(=O)NC(C)CCc2ccccc2)cc1 (stereo not given) do in these assays?
CHT block: inactive

Results for FCCCOc1ccc(-c2nccc(-c3ccccn3)n2)cc1 ?
CHT block: inactive

Results for Cc1nc2nc(C)c(NS(=O)(=O)c3ccc(C(C)(C)C)cc3)c(=O)n2[nH]1 ?
CHT block: inactive

How did Cc1cc2c(cc1S(=O)(=O)NCc1ccccc1)n(C)c(=O)c(=O)n2C do in these assays?
CHT block: inactive

How did Cc1nc(C)c(NC(=O)N2CCc3ccccc32)cc1NC(=O)N1CCc2ccccc21 do in these assays?
CHT block: inactive

How did CCOC(=O)C1=NN(c2ccccc2)C(=O)/C1=C\c1ccc(N(C)C)cc1 do in these assays?
CHT block: inactive

How did CCN(CC)C(=O)c1cc2cc(Br)ccc2oc1=O do in these assays?
CHT block: inactive

What do the screens show for `Nc1nc(NCc2cccs2)nn1-c1ccccc1`?
CHT block: inactive

What do the screens show for `CCOc1ccccc1-n1nnnc1SC(C)C(=O)OC` (stereo not given)?
CHT block: inactive

Next section, overlapping the part above by 4 compounds.
How did CCOC(=O)C1=NN(c2ccccc2)C(=O)/C1=C\c1ccc(N(C)C)cc1 do in these assays?
CHT block: inactive

How did CCN(CC)C(=O)c1cc2cc(Br)ccc2oc1=O do in these assays?
CHT block: inactive

What do the screens show for `Nc1nc(NCc2cccs2)nn1-c1ccccc1`?
CHT block: inactive

What do the screens show for `CCOc1ccccc1-n1nnnc1SC(C)C(=O)OC` (stereo not given)?
CHT block: inactive

Results for COc1ccccc1CNC(=O)c1ccc(CS(=O)(=O)c2ccc(C)cc2)o1 ?
CHT block: inactive

How did Cc1onc(-c2c(Cl)cccc2Cl)c1C(=O)NC(C)(C)CO do in these assays?
CHT block: inactive

How did CNC(=S)N1CCc2cc(OC)c(OC)cc2C1COc1ccc(OC)cc1 (stereo not given) do in these assays?
CHT block: inactive

Results for Cc1ccc(-c2nnn3c2nc(NC(C)C)c2ccccc23)cc1 ?
CHT block: inactive

What do the screens show for `COc1ccc(N(CC(=O)NCc2ccccc2Cl)S(=O)(=O)c2c(C)n[nH]c2C)cc1`?
CHT block: inactive

Results for COc1ccc(OC)c(S(=O)(=O)NC(C)c2cnn(-c3ccccn3)c2C)c1 (stereo not given) ?
CHT block: inactive

How did CC(C)CNC(=O)CN1C(=O)NC2(CCCc3ccccc32)C1=O (stereo not given) do in these assays?
CHT block: inactive

Results for CCOC(=O)/C(=N\Nc1ccc(Cl)cc1)Sc1nnc(-c2ccc(OC)cc2)n1C ?
CHT block: inactive

Results for O=C(NCC(=O)N(c1cccc(F)c1)C(C(=O)NC1CCCC1)c1cccnc1)c1cccs1 (stereo not given) ?
CHT block: inactive

How did CCOC(=O)c1c(-c2ccccc2)nc2cc(C)ccn12 do in these assays?
CHT block: inactive

Results for COc1ccc(C2=NOC(C(=O)NCc3ccccn3)C2)cc1 (stereo not given) ?
CHT block: inactive

What do the screens show for `O=C(NCC(=O)N1CCN(Cc2ccccc2)CC1)c1ccc(Cl)cc1`?
CHT block: inactive

How did O=C1OC(OC2CCCCC2)(c2ccccc2)c2ccccc21 (stereo not given) do in these assays?
CHT block: inactive

How did CCn1ncc2c1C(=O)NC1c3ccccc3C(=O)N21 (stereo not given) do in these assays?
CHT block: inactive

How did CC(=O)NCC(=O)N(C)C(C(=O)Nc1ccc2c(c1)OCCO2)c1ccccc1 (stereo not given) do in these assays?
CHT block: inactive

How did O=C1NC(=S)S/C1=C/c1ccc(Oc2cnccn2)cc1 do in these assays?
CHT block: inactive

What do the screens show for `O=C(Cn1ccc(C(F)(F)F)n1)Nc1ccc(S(=O)(=O)NCc2ccco2)cc1`?
CHT block: inactive

What do the screens show for `CCOC(=O)c1c(C)nc2sccn12`?
CHT block: inactive

What do the screens show for `O=C(CNC(=O)c1ccc(Br)cc1)NCCc1nc2ccccc2[nH]1`?
CHT block: inactive

What do the screens show for `CCOC(=O)/C(=C/C=C/c1ccccc1)NC(=O)c1ccccc1`?
CHT block: inactive

The closing two compounds of the part above come first, to join the parts:
What do the screens show for `O=C(CNC(=O)c1ccc(Br)cc1)NCCc1nc2ccccc2[nH]1`?
CHT block: inactive

What do the screens show for `CCOC(=O)/C(=C/C=C/c1ccccc1)NC(=O)c1ccccc1`?
CHT block: inactive

How did CC(=O)c1ccc(S(=O)(=O)Nc2ccc(C(=O)NCC(c3cccs3)N3CCOCC3)cc2)cc1 (stereo not given) do in these assays?
CHT block: inactive

What do the screens show for `CCCCn1c(N)c(N(Cc2ccccc2OC)C(=O)c2cc(=O)[nH]c3ccccc23)c(=O)[nH]c1=O`?
CHT block: inactive

Results for CCc1ccc(OCC(=O)N/N=C/c2cc([N+](=O)[O-])ccc2N2CCCCCC2)cc1 ?
CHT block: inactive

How did CC1CCCC(NC(=O)CSc2nnnn2C)C1C (stereo not given) do in these assays?
CHT block: inactive

How did CCCc1nc2sc3c(c2c(=O)[nH]1)CCCC3 do in these assays?
CHT block: inactive

How did O=C(CN(Cc1ccco1)C(=O)CNS(=O)(=O)c1ccc(Cl)cc1)NC1CCCCC1 do in these assays?
CHT block: inactive

Results for COCCn1c(SCC(=O)Nc2ccccc2OC)nc2ccccc2c1=O ?
CHT block: inactive

Results for CN(C)c1cc(-c2ccc(F)cc2)oc(=O)c1Cl ?
CHT block: inactive

Results for CCCCCn1c(CNC(C)=O)nc2ccccc21 ?
CHT block: inactive

What do the screens show for `CCOC(=O)C1=C(C)NC(=S)NC1c1ccc(C)s1` (stereo not given)?
CHT block: inactive

What do the screens show for `COc1ccc(OCC(=O)Nc2ccccc2OC)cc1`?
CHT block: inactive

How did CN(CC(=O)Nc1c(Cl)cccc1Cl)C(=O)c1cccc(-n2cccc2)c1 do in these assays?
CHT block: inactive

How did Cc1ccc(C(=O)N/N=C\C=C\c2ccccc2[N+](=O)[O-])cn1 do in these assays?
CHT block: inactive

How did O=C(/C=C/c1ccc([N+](=O)[O-])cc1)NCCc1ccc(F)cc1 do in these assays?
CHT block: inactive

How did COc1cccc(NC(=O)CCNC(=O)C2CCN(S(=O)(=O)c3ccc(F)cc3)CC2)c1 do in these assays?
CHT block: inactive

Results for CCOc1ccccc1C(=O)NCc1ccco1 ?
CHT block: inactive

What do the screens show for `c1ccc(CCn2nnnc2C(c2cccnc2)N2CCN(c3nc4ccccc4s3)CC2)cc1` (stereo not given)?
CHT block: inactive

What do the screens show for `CCOC(=O)C1CCCCN1C(=O)c1oc2c(Cl)cc(C)cc2c1C` (stereo not given)?
CHT block: inactive

What do the screens show for `CCOC(=O)C(C#N)c1ccccn1` (stereo not given)?
CHT block: inactive

Results for COc1cc(/C=N/NC(=O)c2cccnc2)ccc1OC(=O)c1cc(OC)c(OC)c(OC)c1 ?
CHT block: inactive

Random excerpt: 2 compounds from above
What do the screens show for `CCOC(=O)C(C#N)c1ccccn1` (stereo not given)?
CHT block: inactive

How did CC(=O)c1ccc(S(=O)(=O)Nc2ccc(C(=O)NCC(c3cccs3)N3CCOCC3)cc2)cc1 (stereo not given) do in these assays?
CHT block: inactive

Structural class, the compounds so far with a furan ring, fused or not.
What do the screens show for `O=C1C2C(C(=O)N1/N=C/c1ccc(N3CCCCC3)o1)C1C=CC2C12CC2` (stereo not given)?
CHT block: inactive

Results for CCOc1ccccc1-n1cnc2cc(C(=O)NCc3ccco3)ccc21 ?
CHT block: inactive

What do the screens show for `CCOC(=O)C1(CCOC)CCN(Cc2ccccc2-c2ccco2)CC1`?
CHT block: inactive

Results for COc1ccccc1CNC(=O)c1ccc(CS(=O)(=O)c2ccc(C)cc2)o1 ?
CHT block: inactive

What do the screens show for `O=C(Cn1ccc(C(F)(F)F)n1)Nc1ccc(S(=O)(=O)NCc2ccco2)cc1`?
CHT block: inactive

How did O=C(CN(Cc1ccco1)C(=O)CNS(=O)(=O)c1ccc(Cl)cc1)NC1CCCCC1 do in these assays?
CHT block: inactive

Results for CCOc1ccccc1C(=O)NCc1ccco1 ?
CHT block: inactive

What do the screens show for `CCOC(=O)C1CCCCN1C(=O)c1oc2c(Cl)cc(C)cc2c1C` (stereo not given)?
CHT block: inactive

New compounds follow
Results for COc1ccc2oc(C(F)(F)C(F)F)cc(=O)c2c1 ?
CHT block: inactive

Results for COc1ccc(N2C(=O)C(CC(=O)O)S/C2=N\N=C\c2cccs2)cc1 (stereo not given) ?
CHT block: inactive

Results for O=C(Nc1c(-c2ccccc2)nc2ccccn12)c1cccc(F)c1 ?
CHT block: inactive

What do the screens show for `CC1CCCN(C(=O)c2ccc(NC(=O)CC3SC(N4CCCC4)=NC3=O)cc2)C1` (stereo not given)?
CHT block: inactive

How did Cc1ccccc1/C=C/c1nc2ccccc2c(=O)[nH]1 do in these assays?
CHT block: inactive

Results for CC1(C)CC(CCNC(=O)CCl)(c2ccccc2)CCO1 (stereo not given) ?
CHT block: inactive

Results for Cc1nc(SCC(=O)c2c[nH]c3ccccc23)n[nH]1 ?
CHT block: inactive

Results for COC(=O)c1ccc(NC(=O)CN2CCOCC2)cc1 ?
CHT block: inactive

How did COc1ccc(-c2nc(CS(=O)CC(=O)NCc3ccc4c(c3)OCO4)c(C)o2)cc1 (stereo not given) do in these assays?
CHT block: inactive

Results for CCCCN(C(=O)c1ccccc1Br)C1CCS(=O)(=O)C1 (stereo not given) ?
CHT block: inactive

Results for Cc1ccccc1NC(=O)CCC(=O)OCC(=O)c1cccc([N+](=O)[O-])c1 ?
CHT block: inactive

How did O=C1/C(=C/c2ccco2)SC(=S)N1CC1CCCO1 (stereo not given) do in these assays?
CHT block: inactive

What do the screens show for `Cc1ccc(C)c(NC(=O)Cn2nnc(C(=O)NCc3ccco3)c2N)c1`?
CHT block: inactive

What do the screens show for `CCOC(=O)c1c(NC(=O)CSc2nc(C)cc(C)c2C#N)sc(C(C)=O)c1C`?
CHT block: inactive

Results for COc1ccc(C(=O)NC2(C(F)(F)F)C(=O)N(Cc3ccco3)C3=C2C(=O)CC(C)(C)C3)cc1OC (stereo not given) ?
CHT block: inactive

What do the screens show for `CCCc1cc(=O)[nH]c(/N=C(/NC(=O)C(C)N2C(=O)c3ccccc3C2=O)Nc2ccccc2)n1` (stereo not given)?
CHT block: inactive

Results for O=C(NCc1cccnc1)C1CC(=O)N(CCc2ccccc2)C1 (stereo not given) ?
CHT block: inactive

How did CCOc1c(Br)cc(CNCc2cccs2)cc1OC do in these assays?
CHT block: inactive

Results for Cc1c(NC(=O)CSCc2ccc(Cl)cc2Cl)cccc1C(=O)O ?
CHT block: inactive

Results for O=C(NC(CO)Cc1ccc([N+](=O)[O-])cc1)C(Cl)Cl (stereo not given) ?
CHT block: inactive

How did CCOc1ccc(N(C)S(=O)(=O)c2cc(-c3cc(C)no3)ccc2C(C)C)cc1 do in these assays?
CHT block: inactive

Results for c1ccc(-c2n[nH]nc2-c2ccccc2)cc1 ?
CHT block: inactive

What do the screens show for `O=C(NCC1CCOCC1)c1ccc2nc(Cc3cccc(Cl)c3)oc2c1`?
CHT block: inactive

Results for O=C(CSc1nnc(COc2ccc(Cl)cc2)o1)N1CCCCC1 ?
CHT block: inactive

What do the screens show for `COc1ccc(C2N(c3cc(Cl)ccc3OC)C(=O)C3CCCN32)cc1OC` (stereo not given)?
CHT block: inactive

How did CCc1ccc[n+](-c2[nH]c(=O)sc2/C=N/N=C(\[O-])CCn2c3ccccc3c3ccccc32)c1 do in these assays?
CHT block: inactive

How did CCOC(=O)C(NC(C)=O)(Nc1ccc(S(=O)(=O)Nc2ncccn2)cc1)C(F)(F)F (stereo not given) do in these assays?
CHT block: inactive

Results for O=C(Nc1cccc2ncccc12)c1ccccc1F ?
CHT block: inactive

Results for O=C(CN1C(=O)S/C(=C\c2ccc(O)cc2)C1=O)c1ccccc1 ?
CHT block: inactive

Results for CCOC(=O)c1cccc(C(=O)Oc2ccccc2)n1 ?
CHT block: inactive

What do the screens show for `COc1ccc(N2CCN(S(=O)(=O)c3cn(C)cn3)CC2)cc1`?
CHT block: inactive

What do the screens show for `Cc1cccc(NC(=O)CCC(=O)N/N=C/c2ccncc2)c1`?
CHT block: inactive

How did Cc1cccc(/C=N\NC(=O)c2csnn2)c1 do in these assays?
CHT block: inactive

How did Cc1ccc(S(=O)(=O)/N=C/c2ccco2)cc1 do in these assays?
CHT block: inactive

Results for CCOc1cccc(CN2CCC(Oc3ccc(C(=O)NCc4ccccn4)cc3)CC2)c1 ?
CHT block: inactive

What do the screens show for `CCC(=O)Nc1cc(C(=O)O)ccc1Sc1ccc(C)cc1`?
CHT block: inactive

Results for CCC(=O)N1c2ccccc2NC2=C(C(=O)CCC2)C1c1ccco1 (stereo not given) ?
CHT block: inactive

How did NC(=S)NNC(=O)[C@@H]1CCCC[C@@H]1C(=O)O do in these assays?
CHT block: inactive

How did CN(c1ccccc1)S(=O)(=O)c1ccc(Cl)c(C(=O)Nc2nn[nH]n2)c1 do in these assays?
CHT block: inactive

What do the screens show for `O=C(CNC(=O)OCc1ccccc1)Oc1ccc2ccc(=O)oc2c1`?
CHT block: inactive
